# Vaccinia Venus – vaccinia inhibition (Venus reporter); 330,000 tested, 0.46% active; AID 720580; Vaccinia virus Venus reporter expression, fluorescence; Potency, µM (highest dose often 36.5 µM), for the others: top-dose activity change, negative = inhibition, most hits filed as inhibitors; active means well fitted inhibition curve with a large enough effect; inconclusive means small, poorly fitted or top-dose-only effect; inactive means no such curve, though single readings can be large or run the other way; tested in A549 cells; also: nearly all actives have a fitted effect of over 30% in size; inactives centre near -10
# VACV mCherry inh – inhibitors of vaccinia virus infection (mCherry reporter signal). Vaccinia virus mCherry reporter infection, fluorescence; about a quarter of the inactives have no number. Potency, µM (series often up to 36.5 µM), for the others: at the highest dose activity change, negative = inhibition, hits mostly inhibitors. 310,000 tested, 0.63% active; active = well fitted inhibition curve with a large enough effect; inconclusive = small, poorly fitted or top-dose-only effect; inactive = no such curve, though single readings can be large or run the other way; tested in A549 cells; also: nearly all actives have a fitted effect of over 35% in size; inactives centre near -10
# An asterisk follows results filed as active; i = inactive; ? = inconclusive; · = not tested or not shown; & = joins results of further samples; [ ] = remark or other dose. % is scaled to controls: 0 for no effect and ±100 for the full control effect; potency is read from the fitted curve at half-maximal effect. Rows were taken by chance; 0.87% or so of the library scored in one or more.
# Below each compound: Vaccinia Venus | VACV mCherry inh
CCc1nnc(N2C(=N)SCC2=O)s1
 : -8% | i
CCCc1nc2ccccc2c(=O)n1NC(=O)c1c(O)c2cccc3c2n(c1=O)CCC3
 : -17% | -17%
COc1ncccc1-c1nnn(-c2ccc(F)cc2)n1
 : -4% | -19%
CCOc1ccc(CCNC(=O)CSc2nnnn2-c2ccccc2)cc1OCC
 : -7% | -4%
COc1ccc(N2CCN(C(=O)C(=O)c3c(C)n(C)c4ccccc34)CC2)cc1
 : -5% | -15%
O=C(CN1C(=O)S/C(=C/c2cccnc2)C1=O)N1CCOCC1
 : -13% | -17%
CCc1ccc(NC(=O)CC2C(=O)N(c3cccc(C)c3)C(=O)N2Cc2cccc(OC)c2)cc1 (stereo not given)
 : -20% | -25%
COc1ccc(/C=C2\SC(=S)N(N3CCOCC3)C2=O)c(OC)c1
 : 12% | -8%
CN(C)C(=O)c1ccc(N/C=C(\C=O)c2nc3ccccc3o2)cc1
 : -8% | i
CCOC(=O)COc1cc(-n2c(=S)[nH]c3ccccc3c2=O)c(Cl)cc1Cl
 : -13% | 1%
Cc1nc2cc(N3CCCCC3)c(NC(=O)c3ccncc3)cc2c(=O)n1Cc1ccccc1
 : -14% | -25%
Cc1ccc(Nc2ncc(C(=O)N3CCN(c4cccc(Cl)c4)CC3)c3ccccc23)cc1Cl
 : -12% | -15%
CCNc1nc(NCC)n2c(SCC(=O)Nc3ccc(C(F)(F)F)cc3[N+](=O)[O-])nnc2n1
 : -14% | -15%
O=C(c1ccc(Cn2cc([N+](=O)[O-])cn2)o1)N1N=C(C(F)F)CC1(O)C(F)F (stereo not given)
 : 2% | -10%
O=C(c1ccccc1)c1cnc[nH]1
 : -8% | -13%
CCc1cccc2sc(NC(=O)C3CC3)nc12
 : -16% | -14%
O=[N+]([O-])c1ccc(Oc2cc(NC3CCCCCCC3)c([N+](=O)[O-])cc2[N+](=O)[O-])cc1
 : -14% | ?
O=S1(=O)CCOC[C@H](Cc2ccccc2)N1Cc1ccc(Cl)cc1
 : -10% | -26%
O=C(Cc1cccs1)Nc1ccccc1C(=O)O
 : -8% | ·
C[n+]1cccc(O)c1SCc1ccccc1
 : -1% | i
O=C(c1cnn2c(C(F)(F)F)cc(-c3cccs3)nc12)N1CCOCC1
 : -5% | -12%
COc1ccc(NC(=S)NN2CCN(C)CC2)cc1
 : 5% | ·
Cc1ccc(OCc2ccc(-c3nc(C#N)c(N4CCN(c5cccc(Cl)c5)CC4)o3)o2)cc1
 : -4% | -2%
Cc1cc(C)n(-c2ccc(NC(=O)C3CCCCN3C(=O)c3ccoc3)cc2)n1 (stereo not given)
 : -14% | 0%
CN(CC(=O)Nc1ccc(Cl)c(C(F)(F)F)c1)C(=O)c1cccc2cccnc12
 : -12% | -26%
Cc1[nH]c2ccc(C(=O)OC(C)C(=O)N(C)c3ccccc3)cc2c1C (stereo not given)
 : ? | ?
C[C@@]12CC(c3ccoc3)OC(=O)C1CC[C@@]1(C)C2C2C=C[C@@]1(O)C(=O)O2 (stereo not given in full)
 : 0% | 36%[activator]
CN(C)CCOC(=O)CCCCCCCCC(=O)OCCN(C)C
 : 7% | i
COc1ccc(C(C)=NOC(=O)c2c(-c3ccccc3Cl)noc2C)cc1CN1CCOCC1
 : -27% | -11%
O=C(NCc1cccc(Cl)c1)c1ccc2c(c1)OCCO2
 : -14% | -4%

# Structural class, the compounds so far with a thiophene ring, fused or not (2)
# Below each compound: Vaccinia Venus | VACV mCherry inh
O=C(Cc1cccs1)Nc1ccccc1C(=O)O
 : -8% | ·
O=C(c1cnn2c(C(F)(F)F)cc(-c3cccs3)nc12)N1CCOCC1
 : -5% | -12%

# The list continues:
# Below each compound: Vaccinia Venus | VACV mCherry inh
COc1ccccc1/C=C/c1nc(C#N)c(NCC(C)C)o1
 : -8% | i
CCOC(=O)C1CCN(C(=O)C23CC4CC(CC(C4)C2)C3)CC1
 : -14% | -13%
CC1=C(C(=O)Nc2cccnc2)C(c2ccc(F)cc2)n2nc(-c3cccc(C)c3)nc2N1 (stereo not given)
 : -13% | -4%
Cc1ccccc1Cn1cc(NC(=O)CCCn2nc([N+](=O)[O-])cc2C)cn1
 : -15% | i
CN(C)CCN(C)C1CN(Cc2ccc([N+](=O)[O-])cc2)S(=O)(=O)C1 (stereo not given)
 : 1% | ?
O=[N+]([O-])c1ccc2nc(NS(=O)(=O)c3ccccc3[N+](=O)[O-])sc2c1
 : 1% | ?
O=C(c1cccc2ccccc12)N1CCN(c2ccc([N+](=O)[O-])c(N3CCOCC3)c2)CC1
 : -7% | ?
COc1cccc(N2[C@@H](CC(=O)O)c3ccc(/C=C/C(=O)O)cc3S2(=O)=O)c1
 : -9%&-12% | -19%
O=C1CC(NC(=O)C(F)(F)F)c2cc3c(cc21)OCO3 (stereo not given)
 : 6% | i
COc1ccc(CCNC(=O)c2cc(-c3ccc(C)cc3)nc3n[nH]c(-c4ccc(F)cc4)c23)cc1OC
 : -23% | -18%
CC(=O)Nc1ccc(/C=C/c2ccc3c([N+](=O)[O-])cccc3n2)cc1
 : -4% | -4%
Cc1ccccc1S(=O)(=O)N1CCN(c2nc(-c3cccs3)nc3ccccc23)CC1
 : -18% | i
O=C(N/N=C/c1ccc(O)cc1O)NC12CC3CC(CC(C3)C1)C2
 : -26% | ?
COc1ccc(CCNC(=O)Cn2c(C)c3cnn(-c4ccccc4)c(=O)c3c2C)cc1OC
 : -11% | -15%
COc1ccc(NC(=O)CSc2nc(-c3ccc(OC)cc3)[nH]c2-c2ccc(OC)cc2)cc1
 : -21% | -19%
CCC1CCCCN1C(=O)COc1ccccc1NC(C)=O (stereo not given)
 : 3% | -1%
COc1ccccc1NS(=O)(=O)c1ccc(NC(=O)c2[nH]nc(OC)c2[N+](=O)[O-])cc1
 : -12% | -15%
Cc1ccc(C2(C)NC(=O)N(CC(=O)N3CC(=O)Nc4ccccc43)C2=O)cc1 (stereo not given)
 : 0% | i
O=C(CCCOc1ccc(Cl)cc1)N1CCCCC1
 : -12% | -8%
O=C(O)c1ccccc1/C=N/N1CCN(C2c3ccccc3-c3ccccc32)CC1
 : -16% | -12%
Cc1ccc(Nc2nnc(-c3ccc(C)c(S(N)(=O)=O)c3)c3ccccc23)cc1
 : -24% | ?
CC1(C)Cc2nc(N)c(=O)sc2C1
 : -4% | -26%
C/C(CC(=O)N(C(C)C)C(C)C)=N\NC(=O)COc1ccc(Br)cc1Br
 : -8% | -7%
COC(=O)CCN(C(=O)c1cc([N+](=O)[O-])cc([N+](=O)[O-])c1)c1ccccn1
 : 2% | 2%
O=C(CN1CCN(Cc2ccccc2Cl)C1=O)NCc1ccco1
 : -5% | -12%
CCCCN(CCCC)c1ncnc2nc[nH]c12
 : ? | -26%
O=C(NC1CCOC1=O)OCc1ccccc1 (stereo not given)
 : -16% | i
CC1(C)Cc2nc(Cl)c(C#N)cc2CO1
 : -3% | i
CC1CCC(C(C)C)C(OC(=O)Cn2c(-c3ccc(Br)cc3)[n+](C)c3ccccc32)C1 (stereo not given)
 : 13µM* | 11µM*
COc1ccc(-[n+]2c(-c3ccccc3)cc(-c3ccc(C)cc3)cc2-c2ccccc2)cc1
 : ? | ?
CCC(C)NC(=O)c1ccccc1NC(=O)C(C)N(c1ccccc1)S(C)(=O)=O (stereo not given)
 : -11% | -10%
CC(C)Nc1nc(NC(C)C)nc(Oc2ccc(OCc3ccccc3)nn2)n1
 : -25% | ·
CC(=O)c1ccc(S(=O)(=O)N2CCN(C(=O)CSc3ccc(C)c(C)c3)CC2)cc1
 : -12% | i
COc1cc2c(cc1OC)C(C(=O)N1CCCCC1)C(c1ccccc1F)N(C)C2=O (stereo not given)
 : 7% | 0%
CCOC(=O)C1CCN(C(=O)COc2cc(C)c(Br)cc2C)CC1
 : -20% | ·
CC(OC(=O)c1ccccc1O)C(=O)Nc1ccc(Cl)cn1 (stereo not given)
 : -8% | -17%
CC1(C(=O)NCC(F)(F)F)CCN1C(=O)Cc1ccc(-c2ccccc2)cc1 (stereo not given)
 : -6% | i
O=C(CNC(=O)c1ccc(F)cc1)OCc1cc(=O)n2nc(C3CCCCC3)sc2n1
 : -8% | 4%
CCN(CC)Cc1cc(C(C)(C)C)cc(N2CCOCC2)c1O
 : -15% | ?
CCc1ccccc1NC(=S)Nc1cc(OC)c(NC(=O)C(C)C)cc1OC
 : -16% | i
OC[C@@H]1CC[C@@H](Cc2ccc(-c3ccccc3)cc2)O1
 : -15% | -6%
CC[C@@]12C(=O)N(c3cccc(Br)c3)C(=O)N1[C@H](c1ccc(Br)cc1)[C@@H]1C(=O)N(C(C)(C)C)C(=O)[C@@H]12
 : -19% | -1%
COc1ccc2cc3[n+](cc2c1O)CCc1cc2c(cc1-3)OCO2
 : 7% | i
Cc1cc(-n2cnnn2)cc(C)c1S(=O)(=O)N(C)c1ccccc1
 : -1% | -2%
COC(=O)Cn1cnc2scc(-c3ccc(C)cc3)c2c1=O
 : -14% | -20%
C=C(c1ccccc1)c1ccc(N(C)C)cc1
 : 4% | ?
CCCc1nc2oc3c(=O)[nH]cnc3c2c2c1CCCC2
 : -11% | ?
O=C(O)C1C2CCC(O2)C1C(=O)Nc1ccc(OC(F)F)cc1 (stereo not given)
 : -7% | i
CCCN1CC(CSC)C[C@H]2c3cccc4[nH]cc(c34)C[C@H]21 (stereo not given in full)
 : -7% | -1%
O=C(CCS(=O)(=O)c1ccccc1)Nc1ccc2c(c1)OCO2
 : 1% | 2%
COc1ccccc1C(=O)OCc1c(F)cccc1Cl
 : -18% | ·
CCCCCNC(=O)CCn1c(=O)oc2ccccc21
 : -11% | -10%
COc1ccc(S(=O)(=O)NNC(=S)NCCc2ccccc2)c(OC)c1
 : -8% | -10%
Cc1cc(NC(=O)c2ccc(Cl)cc2)c(C)cc1O
 : -10% | -8%
CN(C(=O)c1cnccn1)c1c(N)n(Cc2ccccc2)c(=O)[nH]c1=O
 : -8% | -11%
CCCS(=O)(=O)N1CCC(C(=O)NCc2ccco2)CC1
 : -10% | ·
N=C1C(c2nc3ccccc3s2)=C(O)CN1CCCO
 : ? | i[1.46 µM]
CC(C)n1nnnc1SCC(=O)N1CCN(C(=O)c2ccco2)CC1
 : -13% | -21%
CCC(=O)N1CCc2cc(Br)cc(S(=O)(=O)CCC(=O)N3CCN(c4cc(C)ccc4C)CC3)c21
 : -6% | 9%
Cc1cn([C@H]2C[C@H](O)[C@@H](/C=C/C(=O)NCCN3CCCCC3)O2)c(=O)[nH]c1=O
 : -8% | 7%

# Taken from above:
# Entry for `CCC(=O)N1CCc2cc(Br)cc(S(=O)(=O)CCC(=O)N3CCN(c4cc(C)ccc4C)CC3)c21` under Vaccinia Venus: -6%
# Entry for `CCCS(=O)(=O)N1CCC(C(=O)NCc2ccco2)CC1` under Vaccinia Venus: -10%
# Entry for `CCc1ccccc1NC(=S)Nc1cc(OC)c(NC(=O)C(C)C)cc1OC` under Vaccinia Venus: -16%
# Entry for `C=C(c1ccccc1)c1ccc(N(C)C)cc1` under Vaccinia Venus: 4%
# Entry for `COC(=O)Cn1cnc2scc(-c3ccc(C)cc3)c2c1=O` under Vaccinia Venus: -14%
# Entry for `CC(=O)c1ccc(S(=O)(=O)N2CCN(C(=O)CSc3ccc(C)c(C)c3)CC2)cc1` under Vaccinia Venus: -12%

# (further entries)
# Below each compound: Vaccinia Venus | VACV mCherry inh
COc1ccc(C)cc1NC(=O)c1cc(S(=O)(=O)N2CCN(c3cccc(C)c3C)CC2)ccc1F
 : 0% | -13%
Cc1cc(NC(=O)/C(C#N)=C/c2ccc(-c3cccc(C(F)(F)F)c3)o2)n(-c2ccccc2)n1
 : -2% | -9%
CC(C)NC(=O)Cn1cc(S(=O)(=O)N2CCCC2)c(S(=O)(=O)N2CCCC2)c1
 : -20% | -3%
C=C(CN(C)C)C(=O)c1ccc(C)cc1C
 : ? | ?
O=C1/C(=C/c2ccc(O)c(O)c2)Oc2cc(O)ccc21
 : 411%[activator] | 48%[activator]
CCCN1C(=O)C2(c3ccccc31)c1c(oc3ccc(F)cc3c1=O)C(=O)N2CCCOC(C)C (stereo not given)
 : -11% | -9%
CN(Cc1cccc(F)c1)C(=O)CSc1nnc(C2CC2)n1C1CC1
 : -15% | i
COC(=O)C1=C(c2ccc(F)cc2F)C[C@@H]2CC[C@H]1N2C(=O)N1CCC(C)CC1
 : -3% | i
O=C(N/N=C/c1cccnc1)c1sc2ccccc2c1Cl
 : 9% | ?
COCc1c(C(=O)Nc2ccc(C)c(S(=O)(=O)N3CCOCC3)c2)oc2ccccc12
 : -12% | i
CCOC(=O)c1ccc(S(=O)(=O)Nc2ccccc2-c2nnn(CC)n2)cc1
 : -12% | -14%
CC(=O)Nc1nnc(Cc2ccccc2)s1
 : -7% | i
O=C(COc1ccccc1Cl)Nc1cc(Cl)ccc1O
 : -2% | i
CCOC(=O)Cn1c(=NC(=O)c2cc(-c3cccs3)nc3ccccc23)sc2cc(S(N)(=O)=O)ccc21
 : -21% | -23%
CC(OC(=O)c1cccc(-n2cnnn2)c1)C(=O)N(C)c1ccccc1 (stereo not given)
 : -30% | i
Cc1ccccc1CSc1nc2ccsc2c(=O)n1CCC(C)C
 : -10% | -1%
CC(=O)N1CCOc2cc(S(=O)(=O)NC(C)c3ccccc3)c(Cl)cc21 (stereo not given)
 : -21%&-15% | -10%&-21%
CC(=O)NC(Cc1ccc(F)c(F)c1)C(=O)NC1CCN(C(=O)c2ccc(Cl)cc2)CC1 (stereo not given)
 : -16% | 0%
O=C(Cn1cnc2c(oc3ccccc32)c1=O)NCc1ccco1
 : -7% | i
CC1CCN(C(=O)CSC2=NS(=O)(=O)c3cc(F)ccc3N2)CC1
 : 3% | -23%
O=C(N1CCCCCC1)N1CC1
 : -12% | -15%
CCOC(=O)c1c(NC(=O)c2cc3nc(-c4ccc(OC)cc4)cc(C(F)(F)F)n3n2)sc2c1CCC(C)C2 (stereo not given)
 : -9% | -13%
